Assay outcomes: PubChem, ICCB-Longwood Screening Facility, Harvard Medical School
Bm FixLJ act: activators of Burkholderia fixLJ two-component system; AID 1918990; 29,000 tested, 0.3% active; B. multivorans fixK-promoter GFP reporter, 18 h; hits give high values; z-score (no concentration beside the values);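 active = replicate mean overnight rise in green fluorescent reporter signal, 3 or more SD over negative controls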;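 note: score is relative to vehicle wells of the plate; 300 nL library stock went into each well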
* marks the source's active call; other numbers are inactive results. The list is partial (hit frequency here may not be typical).

SMILES	Bm FixLJ act
COc1ccc(NC(=O)CN(c2cc(C)cc(C)c2)S(=O)(=O)c2c(C)noc2C)cc1Cl	-0.5
COc1ccc(-c2ccnc3c(-c4ccc(F)cc4)c(C)nn23)cc1OC	-0.04
CS(=O)(=O)N1CC2CCC(C1)N(C(=O)c1ccc3ncsc3c1)C2 (stereo unspecified)	0.41
COc1ccc(NC(=O)c2ccco2)cc1NC(=O)COc1ccc(Cl)cc1C	-2.17
Cc1cccc(Oc2ccc(NC(=O)CCC(=O)OCC(=O)c3ccc(Br)cc3)cc2)c1C	-1.32
CCCNC(=O)CN1C(=O)CSc2ccc(S(=O)(=O)N3CCC(C)CC3)cc21	-0.63
CC(C)OCCCN(Cc1ccco1)C(=O)c1cc2c(s1)-c1ccccc1OC2	1.61
CCCN(C(=O)CCNC(=O)Cn1cnc2ccccc2c1=O)c1cccc(C)c1	-0.19
Cc1ccc(C)c(CN2C(=O)c3ccccc3S(=O)(=O)c3ccc(C(=O)NCc4ccccc4)cc32)c1	1.56
CC1=C(C(=O)Nc2cccnc2)C(c2ccccc2)n2nc(SCc3ccccc3Cl)nc2N1 (stereo unspecified)	-2.21
CCOc1ccc(-c2nonc2NC(=O)c2ccco2)cc1OCC	-0.01
CC(=O)c1cccc(Nc2nc(-c3ccccc3Cl)nc3ccccc23)c1	-1.92
COc1ccc(N2C(=O)C(CC(=O)Nc3ccc(F)cc3)N(Cc3ccc4c(c3)OCO4)C2=O)cc1 (stereo unspecified)	-1.73
Cc1occc1C(=O)N1CCCN(C(=O)c2cccc(F)c2F)CC1	-0.7
O=C1CC(c2ccccc2)Sc2ccccc2N1Cc1ccccc1F (stereo unspecified)	0.41
COc1ccc(CCN(Cc2ccccc2F)C(=O)NCC2CCS(=O)(=O)C2)cc1 (stereo unspecified)	-1.1
CCn1c(=O)c2cc(C(=O)N(CCCOC(C)C)Cc3ccco3)sc2c2ccccc21	-0.37
CCCCCCCCCCOc1cc2c(=O)c(C(=O)OCC)c[nH]c2cc1OCC	-2.44
COc1ccc(C(=O)Nc2ccc(S(=O)(=O)Nc3cc(C)nc(C)n3)cc2)cc1	-2.71
CCOc1ccc(CCNC(=O)c2ccc3c(c2)N(Cc2ccc(F)cc2)CCS3)cc1	-0.29
COc1ccc(-c2cc(C(=O)Nc3ccc4c(c3)OCO4)no2)cc1	-2.85
c1ccc(Nc2c(-c3ccccc3)nc3ncccn23)cc1	-0.29
CCCCN(Cc1ccccc1)S(=O)(=O)c1cc(Br)cc2c1N(C(C)=O)CC2	-1.03
Cc1cccc(C)c1OCC(=O)Nc1c(C(=O)c2ccc(Br)cc2)oc2ccccc12	-2.5
COc1ccc(NC(=O)CC2C(=O)N(c3ccc(F)cc3)C(=O)N2CCc2sccc2C)cc1 (stereo unspecified)	-2.26

The final 7 compounds of the part before lead into the next.
SMILES	Bm FixLJ act
COc1ccc(C(=O)Nc2ccc(S(=O)(=O)Nc3cc(C)nc(C)n3)cc2)cc1	-2.71
CCOc1ccc(CCNC(=O)c2ccc3c(c2)N(Cc2ccc(F)cc2)CCS3)cc1	-0.29
COc1ccc(-c2cc(C(=O)Nc3ccc4c(c3)OCO4)no2)cc1	-2.85
c1ccc(Nc2c(-c3ccccc3)nc3ncccn23)cc1	-0.29
CCCCN(Cc1ccccc1)S(=O)(=O)c1cc(Br)cc2c1N(C(C)=O)CC2	-1.03
Cc1cccc(C)c1OCC(=O)Nc1c(C(=O)c2ccc(Br)cc2)oc2ccccc12	-2.5
COc1ccc(NC(=O)CC2C(=O)N(c3ccc(F)cc3)C(=O)N2CCc2sccc2C)cc1 (stereo unspecified)	-2.26
Cc1ccccc1NC(=O)Cn1c(=O)n(Cc2ccco2)c(=O)c2cccnc21	-1.82
CCCN(CCC)c1nc(-c2ccccc2F)nc2ccccc12	2.58
CCN(CC)CCOC(=O)c1ccc(NC(=O)c2cc3c(=O)n(CC)c4ccccc4c3s2)cc1	-0.53
COCC1(N(C)C(=O)Nc2ccc(-c3nc4ccccc4[nH]3)cc2)CC1	-0.64
COc1ccccc1C(=O)Oc1ccc(C(c2c(C)[nH][nH]c2=O)c2c(C)[nH][nH]c2=O)cc1	-2.1
CC1=C(C(=O)OC2CCCCCC2)C(c2cccc(Cl)c2)CC(=O)N1 (stereo unspecified)	-0.34
CCC(Sc1nnc2c(n1)[nH]c1ccccc12)C(=O)Nc1ccccc1OC (stereo unspecified)	-1.31
O=C(NCc1ccco1)c1ccc2c(c1)N(Cc1ccccc1)C(=O)c1ccccc1S2(=O)=O	-0.08
CN(Cc1cnc2nc(N)nc(N)c2n1)c1ccc(C(=O)NC(CCC(=O)O)C(=O)O)cc1 (stereo unspecified)	-1.12
CCCc1cn(C2CCN(C(=O)C(CC(C)C)NC(C)=O)CC2)nn1 (stereo unspecified)	-0.58
CCn1c(Cn2ccnc2)nnc1C1CCN(C(=O)Cn2cc(C)cn2)CC1	-2.43
Cc1cc(C)n(C2CN(C(=O)c3cccc(-c4nc(C)c(C)s4)c3)C2)n1	-2.31
Cc1coc2cc3oc(=O)c(CCC(=O)NCc4ccc(Cl)cc4)c(C)c3cc12	-0.78
CCOC1COCCC1NC(=O)c1cc2nc(C)cc(C(F)(F)F)n2n1 (stereo unspecified)	-2.58
CCOC(=O)N1CCC(NC(=O)Nc2ccc(-n3nnnc3C)cc2)CC1	0.02
O=C(CCS(=O)(=O)c1ccc(Br)s1)Nc1cc(C(F)(F)F)cc(C(F)(F)F)c1	-1.94
CC(=O)O[C@]1(C(C)=O)CC[C@H]2[C@@H]3C=C(C)C4=CC(=O)CC[C@]4(C)[C@H]3CC[C@@]21C	-1.83
COc1cc(C2NC(=O)c3c(sc4c3CCN(C)C4)N2)ccc1OC(=O)c1ccccc1 (stereo unspecified)	-1.37
Cn1c(Oc2ccccc2)nc2c1c(=O)n(Cc1ccc(Cl)cc1Cl)c(=O)n2C	-0.03
CCC1=Nc2cc(C(=O)NC3CCC(C)CC3)ccc2Sc2ccc(C)cc21 (stereo unspecified)	-0.18
Cc1cccc(N(C)C(=O)Cn2c(=O)oc3cc(S(=O)(=O)N4CCCCC4)ccc32)c1	-0.7
COc1cc(OC)c(N(C)C(=O)CCNC(=O)Cn2cnc3ccccc3c2=O)cc1Cl	-0.4
CCCN1CN=C(NS(=O)(=O)c2ccc(NC(C)=O)cc2)NC1	-0.73
COc1ccc(N2CCN(C(=O)CCC(=O)NNc3nc4ccccc4c4nc(C)nn34)CC2)cc1	-2.14
COc1cc2oc(=O)c(CC(=O)NCCc3ccccc3F)c(C)c2cc1OC	-1.52
Next structures follow:
SMILES	Bm FixLJ act
CCn1c(Cn2ccnc2)nnc1C1CCN(C(=O)c2cnn(C)c2)CC1	-3.35
CCOC(=O)N1CCc2c(sc3c2c(=O)n(-c2ccccc2C(F)(F)F)c(=O)n3Cc2ccccc2C)C1	0.53
CCOC(=O)c1c(NC(=O)c2ccc(C)c(C)c2)sc2c1CCCCC2	0.47
CSc1ccc(-c2nc3cc(C)ccn3c2Nc2ccc(C)cc2)cc1	-1.6
COc1ccc(-c2cc(C(F)(F)F)nc(NCc3ccc(Cl)cc3)n2)cc1	-0.52
COc1ccc(-c2cc(C(=O)Nc3c(C)nn(Cc4ccc(F)cc4)c3C)no2)cc1OC	-1.59
COC(=O)c1ccccc1-n1c(CCC(=O)O)ccc1-c1ccccc1	0.99
Cc1ccc(-n2c(=O)c3ccc(C(=O)NCc4ccccc4Cl)cc3n(Cc3ccccc3F)c2=O)cc1	-0.46
O=C(c1nnc2n1CCCCC2)N1CC(O)C(Cc2ccnc3ccccc23)C1 (stereo unspecified)	-3.94
Cn1nccc1C(O)c1cc2n(n1)CCN(C(=O)CCCn1cccn1)C2 (stereo unspecified)	-2.58
CCOc1ccc(NC(=O)c2cc3sc(Cl)cc3n2CC)cc1	-1.48
COc1ccc(CCNC(=O)CCCCn2c(=O)c3ccccc3n(Cc3ccccc3C)c2=O)cc1OC	-1.13
COc1ccc(CCCc2nnc(SCC(=O)Nc3cccc(F)c3C)o2)cc1	-3.09
COc1ccc(NC(=O)/C(C#N)=C/c2ccc(C)o2)cc1	-0.68
Cc1cccc(NC(=O)Cn2nnc(C(=O)NCc3cccs3)c2N)c1	-2.06
CCc1ncc(S(=O)(=O)NC2CCCN(Cc3ccccc3F)C2)[nH]1 (stereo unspecified)	-1.24
COc1ccc(CNC(=O)c2nn(-c3ccccc3C)nc2CO)cc1	-1.36
CCOC(=O)c1cc2c(=O)n3ccccc3nc2n(CCOC)c1=NC(=O)c1c(-c2c(F)cccc2Cl)noc1C	0.49
Cc1nnc2n1C(C)CN(C(=O)CCSc1ccc3c(c1)OCCO3)C2 (stereo unspecified)	0.41
Cc1nc(C)c(C(=O)N2CC3c4ccccc4OC[C@]3(C(=O)O)C2)s1 (stereo partly specified)	-0.03
CC(=O)Nc1ccc(NC(=O)c2ccc3c(c2)N(Cc2cccc(Cl)c2)C(=O)c2ccccc2S3(=O)=O)cc1	1.98
Cc1c(Cl)cccc1NC(=O)CN1C(=O)C(C)N=C(c2ccccc2)c2ccccc21 (stereo unspecified)	-1.93
CCCS(=O)(=O)c1ncc(Cl)c(C(=O)Nc2c(C(=O)Nc3ccccc3)oc3ccccc23)n1	-1.15
COCCn1c(CO)nnc1C1CC(NC(=O)c2ccc(Cl)cc2)C1 (stereo unspecified)	-1.74
Cc1cc(NC(=O)NCCCn2cc(Cl)cn2)n(C(C)C2CC2)n1 (stereo unspecified)	-0.08
The listing continues:
SMILES	Bm FixLJ act
COc1cccc(NC(=O)CC2NCCNC2=O)c1 (stereo unspecified)	-0.25
CCCOc1ccc(C(=O)NCC2OCCc3ccccc32)cc1 (stereo unspecified)	-0.88
COc1cc(NC(=O)N2c3ccccc3Sc3ccccc32)cc(OC)c1	-0.82
COc1cc(CN(CC2CCCO2)C(=O)c2ccccc2F)cc(OC)c1OC (stereo unspecified)	-0.34
Cc1ccccc1-n1nc(CO)c(C(=O)NCC(c2ccccc2)c2ccccc2)n1	0.14
CCN(CC)c1ccc(C(=O)Nc2ccc3nc(N(CC)CC)cc(C)c3c2)cc1	-1.41
CCS(=O)(=O)c1nc(S(=O)(=O)c2ccc(Cl)cc2)c(NCc2ccc(Cl)cc2)s1	0.77
CCCCN(C)C(=O)c1cn(C)c2ccc(S(=O)(=O)N3CCC(C)CC3)cc2c1=O	-0.14
CCc1cccc(NC(=O)c2coc(=O)c3ccccc23)c1	-0.72
Cc1cc(C(C)(C)C)cc(S(=O)(=O)NCCCN2CCNC(=O)C2)c1C	0.13
Cc1cccc(NC(=O)CSc2nc(C)c(Cc3ccccc3)c(=O)[nH]2)c1C	-1.1
COc1ccc(Nc2nc3ccc(Cl)cc3n3nnnc23)cc1OC	-0.8
Cc1ccc(C)c(N2CCN(Cc3nnc(-c4ccccc4)o3)CC2)c1	-0.92
Cc1cccc(Cn2nc(C)n3c(cc4cc(C)ccc43)c2=O)c1	0.15
Cc1ccc2oc(C(=O)Nc3sc4c(c3C(=O)NCc3ccccc3)CCCC4)cc(=O)c2c1	-0.97
CCc1ccc(S(=O)(=O)c2nnn3c2nc(N(CC)Cc2ccccc2)c2cc(Cl)ccc23)cc1	-2
COc1cccc(N2CCN(C(=O)c3cc4c(s3)-c3c(C)cccc3OC4)CC2)c1	-0.7
Nc1nn(-c2ccccc2)nc1C(=O)OCc1ccccc1Br	0.13
COc1cccc(-n2c(C)nc3c(cnn3-c3ccc(C)c(C)c3)c2=O)c1	-0.53
CC(NS(=O)(=O)CCOc1ccccc1)c1ncnn1C (stereo unspecified)	-0.38
CC(C)(C)C(=O)NCCc1nc2ccccc2n1CCCCOc1ccc(Cl)cc1	-1.56
CN1C(=O)CCC12CCN(S(=O)(=O)Cc1ccc(Cl)cc1F)CC2	0.88
O=C(CCCn1c(=O)c2ccccc2n(CC(=O)Nc2cccc(C(F)(F)F)c2)c1=O)NCc1ccc2c(c1)OCO2	-0.51
Cc1cc(F)ccc1C(=O)N1CC2CCC(C1)N(CC(=O)N(C)C)C2=O (stereo unspecified)	0.27
CCOC(=O)c1c(C)oc2ccc(N(C(C)=O)S(=O)(=O)c3c(C)cc(C)cc3C)cc12	-1.08

Grouped by structure: the compounds so far containing a tert-butyl group (2)
SMILES	Bm FixLJ act
Cc1cc(C(C)(C)C)cc(S(=O)(=O)NCCCN2CCNC(=O)C2)c1C	0.13
CC(C)(C)C(=O)NCCc1nc2ccccc2n1CCCCOc1ccc(Cl)cc1	-1.56

(cont.)
SMILES	Bm FixLJ act
CC(C)c1noc(C2CCCN2C(=O)C2CCN(Cc3ccco3)CC2)n1 (stereo unspecified)	-0.01
CCOc1cc(-c2nc(-c3ccc(-c4ccccc4)nc3OCC)no2)cc(OCC)c1OCC	-2.72
CCOC(=O)N1CCc2c(sc3c2c(=O)n(CCc2ccccc2)c(=O)n3CC(=O)Nc2ccccc2C)C1	-0.1
Cc1n[nH]c(C)c1S(=O)(=O)N1CCOc2ccc(Cl)cc2C1	-1.9
COc1ccc(NC(=O)c2oc3ccccc3c2NC(=O)COc2ccc(F)cc2)c(OC)c1	-0.77
Cn1ccc(NC(=O)CN2CCC(C(O)c3nccn3C)CC2)n1 (stereo unspecified)	-0.18
COCCCNC(=O)c1ccc(Cn2c(=O)c3ccccc3n(CC(=O)Nc3ccc(C)cc3C)c2=O)cc1	-1.61
CSc1ccc(-c2nnn(CC(=O)Nc3sc4c(c3C#N)CCC(C(C)(C)C)C4)n2)cc1 (stereo unspecified)	-0.87
Cc1ccc(-c2nc3cc(NC(=O)c4cc(Br)ccc4Cl)ccc3o2)cc1	-1.38
CCC(C)Cn1c(/C=C/c2ccccc2)nc2ccccc21 (stereo unspecified)	-1.27
CCOC(=O)c1ccc(NC2SC(=O)N(Cc3cccc(C(=O)O)c3)C2=O)cc1 (stereo unspecified)	-1.37
O=C(c1ccc(CSc2nc3ccncc3n2Cc2ccccc2F)cc1)N1CCCCC1	-0.78
CCCSc1nnc(NC(=O)c2cc(=O)c3ccccc3o2)s1	-1.14
CCCCC(=O)N1CC(=O)Nc2ccc(F)cc2C1c1ccc(F)cc1 (stereo unspecified)	-0.36
